# Screening results as filed in PubChem.
# B2AR ag: agonists of human beta-2 adrenergic receptor inducing internalization; P07550; Am2.2-beta2AR cells, FAP receptor internalization, flow cytometry; reference of the scale not given here; response, % (no concentration beside the values); 340,000 tested, 0.43% active; AID 504454;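 active = response above a set limit, near 3 SD of response in nonfluorescent compounds, cut at about 42% in these data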;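 note: stock transfer was 100 nL into about 11 µL; a reference agonist was the positive control; negative values mostly stem from fluorescent compounds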
# FGF22 binding: FGF22 (human) thermal shift binding | recombinant FGF22 thermal shift, SYPRO orange fluorescence; percent of sucrose octasulfate shift, DMSO zero | Q9HCT0 | AID 651658 | 340,000 tested, 1.5% active | calls only at 9.99 µM;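 active = melting point raised past a set limit in the mean and every replicate; three in four hits are not shown here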
# Target sequence (Q9HCT0 whole entry, looked up): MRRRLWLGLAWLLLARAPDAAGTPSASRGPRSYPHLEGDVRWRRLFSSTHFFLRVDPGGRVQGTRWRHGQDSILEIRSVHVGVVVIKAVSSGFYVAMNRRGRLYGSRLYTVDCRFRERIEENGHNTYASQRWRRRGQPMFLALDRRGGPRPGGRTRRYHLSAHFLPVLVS
# E coli growth: inhibitors of Escherichia coli growth | OD600, 23 h; active compounds read low | OD600 absorbance (concentration not given with the values) | 330,000 tested, 0.21% active | AID 1053175;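 active = OD600 absorbance below the run mean of sample wells minus 3.6 SD, in any replicate, cut at about 0.56 in these data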;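 note: stock transfer was 300 nL into about 60 µL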
# ALR H2O2 inh: blocks human ALR sulfhydryl oxidase activity | AID 485317 | 290,000 tested, 3.8% active | P55789 | inhibition, % (concentration not given with the values) | purified ALR, DTT oxidation, H2O2 HRP-luminol luminescence;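 active = mean and each replicate at 75% or more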;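 note: stock transfer was 7.5 nL into about 7.5 µL; 0% = neutral wells and 100% = wells with inactivated enzyme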
# Target sequence (P55789 whole entry, looked up): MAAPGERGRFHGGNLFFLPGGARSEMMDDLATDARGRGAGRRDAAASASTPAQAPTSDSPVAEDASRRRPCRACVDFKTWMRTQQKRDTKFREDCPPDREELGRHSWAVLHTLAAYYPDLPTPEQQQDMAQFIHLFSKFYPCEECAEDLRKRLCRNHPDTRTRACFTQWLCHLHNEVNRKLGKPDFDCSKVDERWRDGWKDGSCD
# Ecoli rRNA inh: inhibits bacterial ribosomal RNA function over humanized ribosomes; E. coli WT GFP vs humanized-ribosome RFP mutants, fluorescence, 24 h; active compounds read low; DMSO median 0, no signal -100; GFP signal change (wild-type ribosome), % (test concentration not listed); 350,000 tested, 1.6% active;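 active = significant combined selectivity score with lowered wild-type GFP, culture density cut under 30%, mutant RFP and density less affected; inactive = any of these conditions unmet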; note: one replicate is shown; some compounds called inactive have numbers as strong as hits
# UCH37 inh: inhibitors of human deubiquitinating enzyme UCH37; Q9Y5K5; purified proteasome/UCH37, Ub-AMC cleavage fluorescence; AID 588478; inhibition, % (concentration not given with the values); 330,000 tested, 0.33% active;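 active = mean of two replicates above 20%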;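 note: 0% = compound-free wells with enzyme and 100% = wells lacking proteasome; stock transfer was 100 nL into about 20 µL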
# Target sequence (Q9Y5K5 whole entry, looked up): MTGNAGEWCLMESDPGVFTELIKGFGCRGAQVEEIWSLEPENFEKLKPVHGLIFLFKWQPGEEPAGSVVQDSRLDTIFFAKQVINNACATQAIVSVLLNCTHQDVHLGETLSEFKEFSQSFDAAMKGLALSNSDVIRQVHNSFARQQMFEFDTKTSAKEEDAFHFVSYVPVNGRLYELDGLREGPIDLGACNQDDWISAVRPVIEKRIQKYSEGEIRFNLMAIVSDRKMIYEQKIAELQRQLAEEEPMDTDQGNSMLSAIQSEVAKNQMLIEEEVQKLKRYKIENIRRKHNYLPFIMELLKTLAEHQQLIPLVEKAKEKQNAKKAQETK
#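 Material: Human UCH37 enzyme supplied as purified proteasome complex | Schedule: 30 min compound-proteasome preincubation then 25 min substrate reaction, room temperature | Detection: AMC fluorescence from Ub-AMC cleavage, excitation 355 nm, emission 460 nm | Benchmarks: Wells without proteasome as full block, compound-free enzyme plus substrate as uninhibited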
# HNF4A DNA FP: change in binding of human HNF4 alpha to DNA | 360,000 tested, 0.3% active | activity change, % at 10 µM | HNF4a-FITC DNA binding, fluorescence polarization, 1 h | P41235; in the data active = activity change above about 30%, passing the limit was not always enough;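 note: controls were the assay level and a saturating level of protein; the project sought stronger binding though the title names inhibitors; some compounds called inactive have numbers as strong as hits; positive values seem to mean higher polarization but the record does not say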
# Ecoli rRNA inh OD600: second read-out of Ecoli rRNA inh, no call of its own (marks repeat the call); OD600 change, %; measured here: OD600 growth;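 optical density of the mix in the first replicate; 0 = DMSO median and -100 = no signal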
# Ecoli rRNA inh RFP: second read-out of Ecoli rRNA inh, no call of its own (marks repeat the call); RFP signal change, %; measured here: RFP humanized mutant strains;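 first replicate; 0 = DMSO median and -100 = no signal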
# An asterisk follows results filed as active; i = inactive; . = not tested or not shown; & = joins results of further samples; ! = not active in a repeat. Some of the compounds tested; rates above refer to the full screens.
SMILES,B2AR ag,FGF22 binding,E coli growth,ALR H2O2 inh,Ecoli rRNA inh,Ecoli rRNA inh OD600,Ecoli rRNA inh RFP,UCH37 inh,HNF4A DNA FP
O=C1CC2CS(=O)(=O)CC2N1c1ccc(Oc2ccccc2)cc1 (configuration not stated),-18.0,.,0.747,-24.3,0.4,1.4,-1.2,3.1,-0.8
Cc1ccccc1-n1c(=O)[nH]c(=O)c2c(N)c(C(=O)c3ccc(Cl)cc3)sc21,15.1,.,0.665,-10.4,.,.,.,-36.7,3.4
O=C(NCc1ccc(Cl)cc1)C1CCCN(S(=O)(=O)c2cnc[nH]2)C1 (configuration not stated),-6.9,i,0.752,94.3*,-7.0,-2.5,2.0,8.3,1.7
CC1CN(c2ccc(NC(=O)c3ccco3)cc2C(=O)O)CC(C)O1 (configuration not stated),-0.2,i,0.7,-1.1,.,.,.,3.9,-0.9
COc1ccc(NC(=O)CNC(=O)Cn2c(C)cc3ccccc3c2=O)cc1OC,6.6,i,0.728,9.0,15.8,19.6,1.3,2.4,4.9
CCC(C)C(NC(=O)C(CC(C)C)NC(=O)C(CO)NC(=O)C1CCC(=O)N1)C(=O)OC (configuration not stated),5.1,i,0.663,3.2,10.9,10.4,-1.0,1.6,-1.0
COC(=O)C1=C(C)NC(=O)/C1=C\c1ccc2c(c1)OCO2,0.8,.,0.69,-2.4,.,.,.,7.2,0.8
CCNC(=S)N/N=C/c1ccco1,0.9,.,.,-3.0,6.1,4.9,-1.1,.,1.5
Cc1cc(C(C)(C)C)cc(C)c1Cn1c2[n+](c3ccc(C(F)(F)F)cc31)CCCCC2,0.8,i,0.629,-11.6,-44.5,-47.7,-4.6,6.1,6.0
COc1cc2c(cc1OC)CN(C(=O)/C=C/c1ccc([N+](=O)[O-])cc1)CC2,13.2,i,0.686,.,-17.2*,2.1*,1.1*,8.9,3.8
CC(=O)NS(=O)(=O)c1ccc(NC(=O)COc2cccc3c2OC(C)(C)C3)cc1,-6.9,.,0.714,.,8.0,9.1,1.4,5.6,-1.6
CCOc1ccccc1NC(=O)CSc1nc2c(c(=O)n1C)SC(C)C2 (configuration not stated),-1.2,i,0.691,25.4,-16.5,-16.6,-4.0,5.6,-2.2
O=C(/C=C/[C@H]1O[C@@H](n2cnc3c(NC(=O)c4ccccc4)ncnc32)[C@H](O)[C@@H]1O)NCCCc1ccccc1,.,i,.,.,2.1,1.3,-1.3,.,2.6
COc1cc(C(=O)N2CCN(c3ccccc3Cl)CC2)ccc1OCC(=O)N1CCOCC1,-4.6,i,0.648,.,.,.,.,4.7,0.1
COc1cc2nc(CN3CCN(S(=O)(=O)c4ccccc4[N+](=O)[O-])CC3)[nH]c(=O)c2cc1OC,.,i,.,.,-14.7,-9.6,3.6,.,6.8
CCOc1c(C)cc(-c2ncccc2O)cc1C,-14.9&-2.1,.,0.674&0.701,91.9*!,.,.,.,-142.4&-104.7,1.6&-1.9
Cc1ccc2oc(-c3cccc(NC(=O)c4cc(-n5cnnc5)ccc4Cl)c3)nc2c1,2.7,.,0.725,3.7,.,.,.,-2.9,4.3
COc1cc(OC)cc(C(C(=O)NCc2ccccc2)N(Cc2ccco2)C(=O)c2ccno2)c1 (configuration not stated),0.0,.,0.74,-6.4,.,.,.,0.4,10.8
COc1ccccc1OS(=O)(=O)c1ccc(NC(C)=O)cc1,5.0,i,0.697,.,-15.9,0.7,-0.7,1.7,-3.7
Cc1ccc(N2CCN(C(=O)c3cn(CC4CCCCC4)nn3)C(C)C2)cc1 (configuration not stated),10.2,i,0.705,36.5,-21.4,-37.9,5.1,2.4,0.3
Cc1cc(NC(=O)NC2CC(=O)N(c3ccc4c(c3)OCCO4)C2)no1 (configuration not stated),0.8,i,0.653,-4.6,5.2,-2.0,-2.6,5.9,0.5
O=C(NC(=S)Nc1ccccc1N1CCOCC1)c1ccc(Br)cc1,-8.7,i,0.7,-0.2,2.3,16.6,1.1,1.7,-2.1
Cc1ccc(S(=O)(=O)Nc2cccc(-c3ccc4nncn4n3)c2)cc1,3.0,i,0.721,.,3.0,6.6,0.2,3.7,1.2
O=C(NCc1ccco1)c1ccc(C(=O)NCc2ccco2)s1,-11.3,.,0.684,2.2,.,.,.,1.1,-1.1
O=C(CSc1ncnc2ccccc12)NCc1ccco1,-5.6,.,0.664,98.5*,.,.,.,1.3,-0.1
COc1cc(NC(=O)CCNC(=O)Cn2cnc3sc4c(c3c2=O)CCCC4)cc(OC)c1OC,2.7,i,0.692,.,13.4,0.7,-1.0,1.5,3.0
CC(C)=CCC/C(C)=C/CNC(=O)C[C@H]1C[C@H](C(=O)N2CCOCC2)[C@@]2(C)c3[nH]c4ccc(Cl)cc4c3CCN2C1=O,0.4,i,0.685,.,1.4,-0.8,7.1,0.7,0.6
COCc1[nH]nc2c1C(c1ccc(OC)cc1)C(C#N)=C(N)O2 (configuration not stated),3.9,.,0.629,8.4,.,.,.,3.5,-5.9
Cc1occc1C(=O)Nc1ccc(S(=O)(=O)N2CCCC2)cc1,.,.,0.637,-0.9,.,.,.,2.1,0.3
O=C(CSc1ccccc1)Nc1ccc(S(=O)(=O)NCC2CCCO2)cc1 (configuration not stated),-5.1,i,0.652,.,-1.8,-3.9,-0.5,2.7,-1.5
Nc1ccc(OCc2ccco2)cc1,7.1,i,.,0.7,1.1,6.6,-1.2,.,2.8
CC(C)=CCN1CCN(CCCc2ccccc2)CC1CCO (configuration not stated),1.0,i,0.635,-2.8,0.9,0.6,-1.4,-0.5,-1.5
CCCN(C(=O)c1cc(S(=O)(=O)N(C)c2ccccc2OC)ccc1C)C1CCS(=O)(=O)C1 (configuration not stated),-0.4,i,0.656,.,4.8,2.7,-0.8,1.2,1.1
Cc1ccn2cc(CCNC(=O)c3ccc(Br)o3)nc2c1,-2.9,i,0.699,-8.3,-3.1,-2.1,0.5,5.8,5.3
Cc1cccc(C)c1-n1nnnc1C(c1ccnc2ccccc12)N(C)Cc1ccc(Cl)c(Cl)c1 (configuration not stated),.,i,.,.,38.3,22.9,4.4,.,2.2
COc1cc(/C=C/C(=O)Nc2cc(S(=O)(=O)N3CCOCC3)ccc2N2CCCC2)cc(OC)c1OC,8.1,i,0.712,-0.5,-2.4,3.6,1.8,-0.2,-0.8
CCNS(=O)(=O)c1ccc(CCC(=O)N2CCN(c3ccccc3)CC2)cc1,-5.3,i,0.691,62.1,7.5,2.3,0.5,-0.6,-1.2
Cc1ccc(S(=O)(=O)NCc2ccccc2)cc1C(=O)NC1CCC(C)CC1 (configuration not stated),-0.9,i,0.696,-11.2,-0.8,-33.5,-3.0,3.8,-2.5
CCOc1ccccc1OCCCCCc1c(C)n[nH]c1C,8.5,.,0.708,-3.3,.,.,.,1.2,-3.4
CCOc1ccc(CCNC(=O)CS(=O)(=O)Cc2nc(-c3ccc(OC)cc3)oc2C)cc1,1.7,i,0.69,71.6,9.4,14.9,0.8,1.8,-3.9
Cn1c(=O)c2c(ncn2CCOC(=O)C(C)(C)Oc2ccc(Cl)cc2)n(C)c1=O,.,i,.,.,-3.6,-6.4,0.0,.,-4.2
Cc1nc(C)n(C(C)CNS(=O)(=O)c2ccc(Cl)cc2)n1 (configuration not stated),2.0,i,0.628,-3.0,3.3,5.0,-2.2,1.7,3.0
CNc1nc(SCc2ccccc2)nc(N2CCOCC2)n1,-8.0,.,0.708,56.6,.,.,.,2.4,0.1
Cc1cccc(NC(=O)CCCn2c(=S)[nH]c3ccccc3c2=O)c1,1.6,i,0.721,59.4,7.6,-2.0,3.1,2.0,1.2
COCCCn1c(SCC(=O)N2CCc3ccccc32)nnc1-c1ccco1,-12.0,.,0.689,-20.3,.,.,.,-1.3,-0.6
COc1cc(-c2nc(S(=O)(=O)c3ccc(C)cc3)c(N3CCOCC3)o2)cc(OC)c1OC,-1.2,.,.,-0.8,.,.,.,.,-3.1
CCOC(=O)c1cn[nH]c1NC(=S)Nc1ccc(OC)cc1,5.0,i,0.711,-2.8,-6.5,-1.1,-0.6,-0.2,-4.0
COc1ccc(NC(=O)CCNS(=O)(=O)c2ccccc2F)cc1S(N)(=O)=O,-7.3,i,0.669,1.1,5.2,1.9,1.2,2.0,3.2

# In a second layout: 4 of the compounds above
# Screens in order – B2AR ag | FGF22 binding | E coli growth | ALR H2O2 inh | Ecoli rRNA inh | Ecoli rRNA inh OD600 | Ecoli rRNA inh RFP | UCH37 inh | HNF4A DNA FP
COCCCn1c(SCC(=O)N2CCc3ccccc32)nnc1-c1ccco1
 : -12.0 | . | 0.689 | -20.3 | . | . | . | -1.3 | -0.6
CCOc1ccc(CCNC(=O)CS(=O)(=O)Cc2nc(-c3ccc(OC)cc3)oc2C)cc1
 : 1.7 | i | 0.69 | 71.6 | 9.4 | 14.9 | 0.8 | 1.8 | -3.9
CCNS(=O)(=O)c1ccc(CCC(=O)N2CCN(c3ccccc3)CC2)cc1
 : -5.3 | i | 0.691 | 62.1 | 7.5 | 2.3 | 0.5 | -0.6 | -1.2
COc1cc(-c2nc(S(=O)(=O)c3ccc(C)cc3)c(N3CCOCC3)o2)cc(OC)c1OC
 : -1.2 | . | . | -0.8 | . | . | . | . | -3.1

# (continued)
SMILES,B2AR ag,FGF22 binding,E coli growth,ALR H2O2 inh,Ecoli rRNA inh,Ecoli rRNA inh OD600,Ecoli rRNA inh RFP,UCH37 inh,HNF4A DNA FP
CCn1c(CNc2ccc(F)cc2)nnc1SCCN1CCCCC1,3.6,.,0.726,97.6*,.,.,.,3.0,4.4
CCOC(=O)CNC(=O)CSc1cc(C)nc2ccc(OC)cc12,-2.4,i,0.654,24.2,-3.9,-6.7,0.5,-4.2,-5.0
CCOc1nc(Nc2ccc(F)cc2)nc(N2CCN(c3ccc(OC)cc3)CC2)n1,-0.3,.,0.786,-3.4,.,.,.,0.0,4.7
O=C(NCCS(=O)(=O)N1CCCCCC1)c1ccc(F)cc1,-1.7,i,0.666,7.0,4.5,2.9,-0.8,3.4,1.9
Cc1ccc(NC(=O)c2cc(-c3cccs3)on2)cc1,-2.7,.,0.695,6.5,.,.,.,-17.8,-0.9
O=C(CSCc1ccco1)N1CCc2ccccc21,0.8,.,0.69,24.1,.,.,.,1.4,1.2
CC12CCC(=O)C=C1C(F)CC1C2C(O)CC2(C)C1CCC2(O)C(=O)CO (configuration not stated),7.8,i,0.646,.,2.2,15.2,-6.4,0.6,-0.1
CCn1nnnc1SCC(=O)NCc1cccs1,-2.5,.,0.796,-8.2,.,.,.,-2.4,3.9
CC(C)CC1NC(=O)N(CC(=O)Nc2ccc(OCc3ccccc3)cc2)C1=O (configuration not stated),3.7,i,0.714,.,9.1,9.2,-0.9,3.3,-0.7
O=C(C1CCN(S(=O)(=O)c2cc(Cl)ccc2Cl)CC1)N1CCOCC1,-1.3,i,0.677,0.0,3.7,-0.3,1.3,-2.0,-3.0
COc1ccc(C)cc1S(=O)(=O)N1CCCC(C(=O)N2CCN(c3ccccc3F)CC2)C1 (configuration not stated),8.2,i,0.686,-8.7,-4.4,-2.1,2.0,2.8,3.6
Cc1ccc(NC(=O)c2ccc(OC(=O)c3cc4ccccc4o3)cc2)cc1,-2.6,.,0.671,.,.,.,.,4.2,3.1
CC(C)CN(C(=O)CN(C)S(=O)(=O)c1ccc(Cl)cc1)C1CCS(=O)(=O)C1 (configuration not stated),-2.8,i,0.727,-1.7,2.7,1.3,2.5,0.8,1.7
O=C(C1=C[C@@H](C2CCCCC2)C[C@@H](OCc2ccc(CO)cc2)O1)N1CCN(Cc2ccc3c(c2)OCO3)CC1,0.9,i,.,-5.2,-8.4,-18.9,-18.3,1.2,-5.8
O=C(OC1CCOC1=O)c1cccc(S(=O)(=O)Nc2cccc(Cl)c2)c1 (configuration not stated),15.9,.,0.696,0.7,.,.,.,-1.7,2.8
